Compound activity (PubChem BioAssay)
HCMV NEC inh: inhibitors of HCMV UL50-UL53 interaction, biochemical, HTRF | normalized percent inhibition | inhibition, % (concentration not given with the values) | hit rate 0.15% among 190,000 | HCMV UL50-UL53 nuclear egress complex (human cytomegalovirus) | AID 1918969, 2023;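 active = both replicates at 50% or more, plus weaker picks with an unusually low signal ratio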;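 also: stock transfer was 100 nL into about 20 µL; 0% = negative control wells and 100% = wells with untagged competitor protein; inactives centre near -12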
GIV-Gai inh: inhibitors of GIV peptide binding to Galpha-i3, primary screen, biochemical, fluorescence polarization, FITC-GIV GBA peptide, rat Galphai3; AID 1224905, 2016; 90 min; active compounds read low; scaled: aluminum fluoride 0%, vehicle 100%; hit rate 0.42% among 210,000; percent of control (FP), % (test concentration not listed); Guanine nucleotide-binding protein G(i) subunit alpha-3 (Rattus norvegicus), P08753;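 active = replicate mean at 85% of control or lower, very high polarization wells dropped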;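 also: lower values mean more displacement of the GIV peptide from Galpha-i3; wells of about 15 µL received 100 nL stock; the first replicate is given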
Target sequence (P08753 whole entry, looked up): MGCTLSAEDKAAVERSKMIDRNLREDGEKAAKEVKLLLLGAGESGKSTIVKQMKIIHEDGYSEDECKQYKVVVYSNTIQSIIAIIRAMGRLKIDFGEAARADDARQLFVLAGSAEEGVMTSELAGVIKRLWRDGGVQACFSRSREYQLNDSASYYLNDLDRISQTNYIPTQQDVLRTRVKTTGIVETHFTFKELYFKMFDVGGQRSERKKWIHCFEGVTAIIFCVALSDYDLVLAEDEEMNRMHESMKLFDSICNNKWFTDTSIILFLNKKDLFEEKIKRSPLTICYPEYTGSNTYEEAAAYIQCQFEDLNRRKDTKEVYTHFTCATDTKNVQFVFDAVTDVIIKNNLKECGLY
Sa growth inh: S. aureus growth inhibition at 42 and 30 °C, primary screen, LtaS inhibitor project, RN4220, two temperatures | relative growth, % (test concentration not listed) | hit rate 0.53% among 170,000 | AID 720641, 2013 | OD600, 20 h, 42 °C; active compounds read low;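 active = growth at 42 °C up to 50% and 20 or more points under that at 30 °C, or under 10% at both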;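 also: 300 nL library stock went into each well; scaled to the means of positive and negative controls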
Sa growth inh second temp: further read-out of Sa growth inh, marked with its call; relative growth, %; measured here: growth at 30 °C;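 optical density after 20 h as mean of two plates; 100% = untreated growth and lower means inhibition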
An asterisk follows results filed as active; nt = no result given; & = joins results of further samples.

Screens in order – HCMV NEC inh, GIV-Gai inh, Sa growth inh, Sa growth inh second temp
1. COc1ccc2ccc(OCC(=O)NCC(F)(F)F)cc2c1
  -19, nt, 86, 87
2. CCOc1cc(C2CC(=O)Nc3c2sc(C(=O)O)c3-c2cccc(F)c2)ccc1OCC(N)=O (stereo not given)
  -4, 98, nt, nt
3. COc1ccccc1CCNC(=O)C(=O)NCC(c1ccco1)S(=O)(=O)c1ccc(F)cc1 (stereo not given)
  nt, 96, 118, 70
4. COc1cccc(C(=O)NC2CC3CCCC(C2)N3CC(=O)Nc2ccc(N(C)C)cc2)c1 (stereo not given)
  -14, 100, 108, 77
5. S=C(N=P(N1CCOCC1)(N1CCOCC1)C12CC3CC(CC(C3)C1)C2)N1CCCC1
  11, nt, 96, 92
6. O=C(Cc1ccc(S(=O)(=O)N2CCCC2)s1)Nc1ccc(-c2nnc3n2CCCCC3)cc1
  -29, nt, 69, 97
7. CN1CCC(N(C)C(=O)c2nn(-c3ccccc3)c(=O)c3ccccc23)CC1
  5, nt, 109, 98
8. CC(C)C(OC(=O)c1cccs1)C(=O)NC1CCCC1 (stereo not given)
  9, 100, 89, 110
9. COC(=O)c1ccc(C2C3=C(CC(C)(C)CC3=O)OC3=C2C(=O)CC(C)(C)C3)cc1
  -25, 103, nt, nt
10. CN(C)C(=O)CN1C(=O)COc2ccc(C(=O)N3CCN(Cc4ccc5c(c4)OCO5)CC3)cc21
  -28, 106, nt, nt
11. O=C(CCCc1ccccc1)NCC1CCCO1 (stereo not given)
  -14, 97, 81, 88
12. O=C1CCCN1CO
  -7, nt, 86, 91
13. CN(CCc1ccccn1)c1ncnc2c1oc1ccccc12
  -13, nt, 103, 85
14. Oc1ccc(Cl)cc1N=Cc1ccc(-c2ccc(Br)cc2)o1
  -46, nt, 86, 71
15. Cc1cccc(N2CCN(c3ncc(C(=O)O)cc3NS(=O)(=O)c3cc(C)cc(C)c3)CC2C)c1 (stereo not given)
  -34, 101, nt, nt
16. O=C(COC(=O)c1ccccc1-n1cnnn1)c1ccccc1
  -2, nt, 98, 93
17. CC(C)c1ccc(-c2nnn(CC(=O)OC3CCCCC3)n2)cc1
  -8, 104, 106, 83
18. Cc1cccc(CN2C(=O)c3ccccc3Sc3ccc(C(=O)NCCc4ccccc4)cc32)c1
  nt, 99, 153, 97
19. O=C(NCc1ccccc1Cl)c1ccc(CSc2nc3ccncc3[nH]2)cc1
  -4, 97, nt, nt
20. COCC(C)NC(=O)c1ccccc1NS(C)(=O)=O (stereo not given)
  -34, 105, 108, 95
21. CC(CCc1ccccc1)NC(=O)CSc1ccccc1Cl (stereo not given)
  1, nt, 84, 88
22. COc1ccc(/C=N/n2c(=O)c3c(ncn3/N=C/c3ccc(OC)cc3)n(C)c2=O)cc1
  nt, 99, 92, 83
23. Cc1[nH]c2ccc(-c3nnc(SCCC#N)n3C)cc2c1C
  -9, 105, 98, 77
24. CC1CCN(c2nc3[nH]c(=S)n(C(C)C)c(=O)c3s2)CC1
  -14, 99, nt, nt
25. CCOc1ccc(-c2nnc(SCC(=O)Oc3ccccc3)o2)cc1
  -19, 99, 108, 84
26. O=C(NCc1ccccc1)c1cnn(-c2ccccc2)c1-n1cccc1
  nt, 105, 103, 85
27. CCOc1ccc(Nc2nc(Nc3ccc(OCC)cc3)nc(SC3=NCCS3)n2)cc1
  nt, 97, 82, 85
28. COc1ccc(CCNC(=O)c2cc(-c3ccc(Cl)cc3)on2)cc1OC
  -21, 107, 107, 91
29. Cc1ccc2[nH]c(C(=O)NCc3ccccc3Cl)cc2c1
  -18, 101, nt, nt
30. COc1ccc(Cn2c(SCC(=O)NCc3ccccc3)nc3ccccc32)cc1
  nt, 109, 108, 102
31. O=C(C1CCN(Cc2cnn(-c3ccccc3)c2-n2cccc2)CC1)N1CCC2(CC1)OCCO2
  -13, 105, 98, 86
32. CN1C(=O)c2ccccc2C(C(=O)O)C1c1cccs1 (stereo not given)
  -4, 100, 83, 95
33. O=c1c2ccccc2cnn1CCOc1ccccc1
  -8, 100, 117, 74
34. CCSc1nnc(C)c2ccccc12
  -4, nt, 84, 86
35. O=C(NCc1ccccn1)c1nn(-c2ccccc2F)nc1CO
  -8, 100, 103, 92
36. CCOC(=O)c1cnc2c(C)c(Cl)ccc2c1N1CCOCC1
  -9, 98, 91, 84
37. COc1ccc(C2=NOC(C(=O)NCC(C)C)C2)cc1 (stereo not given)
  -21, 102, 113, 84
38. Cc1cccc(C(CC(=O)Nc2nc(C)cs2)n2cccc2)c1 (stereo not given)
  -31, 100, 89, 80
39. COc1cccc(-c2cc(C(=O)Nc3cccc(O)c3)no2)c1
  -1, 101, 107, 84
40. Cn1ncc2c(N(CCO)Cc3ccccc3)ncnc21
  -16, 99, 108, 86
41. CCCc1c(C#N)c(N)nc(SCCCN2CCN(c3cccc(Cl)c3)CC2)c1C#N
  -25, nt, 144, 77
42. CCNc1nc(NC(C)CC)nc(Oc2ccc(OCC)nn2)n1 (stereo not given)
  -2, 104, 104, 101
43. CCC(=O)O[C@H]1[C@H](O[C@@H]2[C@@H](C)[C@H](O[C@H]3C[C@@](C)(OC)[C@@H](O)[C@H](C)O3)[C@@H](C)C(=O)O[C@H](CC)[C@@](C)(O)[C@H](O)[C@@H](C)C(=O)[C@H](C)C[C@@]2(C)O)O[C@H](C)C[C@@H]1N(C)C
  -37, nt, -0.9*, -0.7*
44. CCn1cc(C=C2C(=O)OC(C)(C(C)(C)C)OC2=O)c2ccccc21 (stereo not given)
  nt, 108, 111, 84
45. O=C(CSc1nccn1Cc1ccc(Cl)cc1)Nc1ccc2c(c1)OCCO2
  nt, 105, 102, 77
46. c1ccc(-c2onc3ccc(C4OCCO4)cc23)cc1
  -42, 103, nt, nt
47. C/C(CSC(=O)c1c(-c2c(F)cccc2Cl)noc1C)=N\O
  -6, 99, 95, 88
48. COc1cccc(-n2cc(C(=O)NCCc3ccc(S(N)(=O)=O)cc3)c3ccccc3c2=O)c1
  nt, 102, 86, 70
49. CCCCOc1ccc(CNC(=O)c2ccc3c(c2)N(C)C(=O)C2CCCCN32)cc1 (stereo not given)
  nt, 103, 104, 94
50. CC(C)(C)c1cc(N)n(-c2ccc(C(=O)O)cc2)n1
  5, 108, 98, 86
51. Cc1cc(=O)n2c(C(=O)Nc3ccc(Br)cc3)c(C(=O)Nc3ccccc3)sc2n1
  -4, 98, 101, 84
52. O=S(=O)(c1ccc(F)c(Cl)c1)N1CC(OCc2ccc(F)cc2)C1
  -16, 93, nt, nt
53. Cc1ccc(SC(=O)c2csnn2)cc1
  -2, 99, 72, 53
54. O=C(CCc1ccccc1)N1CCC(c2ccccc2)C1 (stereo not given)
  4, 99, 102, 91
55. CC(C)(C)OC(=O)N1CCC(c2c(C(=O)NCc3ccccc3)cnn2-c2cccc(F)c2)CC1
  nt, 104, 115, 102
56. CC(=O)Nc1ccc(C(=O)CSc2nnc(C)o2)cc1
  1, 111, 109, 108
57. CC(C)(C)c1cc(O)c2oc(=O)c(-c3nc(-c4ccccc4F)no3)cc2c1
  -26, 115, 97, 81
58. COc1ccc(C2=NN(S(=O)(=O)c3ccc(C)cc3)C(c3ccc(OC)c(OC)c3)C2)cc1OC (stereo not given)
  -6, 109, nt, nt
59. COc1ccccc1C1CC(c2ccc(Br)cc2)=NN1CN1C(=O)C(=O)c2ccccc21 (stereo not given)
  -4, 100, nt, nt
60. CC1CCN(C(=O)c2ccc3c(c2)N(C)CCS3)CC1
  -12, 102, 104, 86

Carrying on:
item | Compound | HCMV NEC inh | GIV-Gai inh | Sa growth inh | Sa growth inh second temp
61 | CN1CCN(c2nc(-c3ccc(Cl)cc3)nc3ccccc23)CC1 | -27 | 101 | nt | nt
62 | CCN(Cc1ccccc1)c1ccc(C(=O)O)cc1NS(=O)(=O)c1ccc(C)cc1 | -26 | 100 | nt | nt
63 | Cc1ccc(Cn2nnc3c(=O)n(CC(N)=O)cnc32)cc1 | nt | 99 | 96 | 93
64 | O=C(NCC(c1cccnc1)N1CCOCC1)C(=O)Nc1ccc(F)cc1 (stereo not given) | -9 | 99 | 97 | 89
65 | CC(=O)N1CCN(C(=O)/C(=C/c2ccc(F)cc2)c2ccsc2)CC1 | -16 | nt | 97 | 91
66 | COc1ccc(C2CC(=O)Nc3c2sc(C(=O)O)c3-c2ccc(Cl)cc2)cc1OCC(N)=O (stereo not given) | -4 | 97 | nt | nt
67 | CNC(=O)C1CCC(Cn2c(=O)c3sccc3n(CC(=O)N3CCCC3)c2=O)CC1 (stereo not given) | nt | 97 | 75 | 92
68 | Cc1ccc(C)c(N2CCN(C(=O)C3CCN(c4ccc(N5CCOCC5)nn4)CC3)CC2)c1 | -24 | 104&100 | 116 | 87

Exported with one line to a screen: entries from further up.
62. CCN(Cc1ccccc1)c1ccc(C(=O)O)cc1NS(=O)(=O)c1ccc(C)cc1
63. Cc1ccc(Cn2nnc3c(=O)n(CC(N)=O)cnc32)cc1

Assay by compound	62	63
HCMV NEC inh	-26	nt
GIV-Gai inh	100	99
Sa growth inh	nt	96
Sa growth inh second temp	nt	93

(cont.)
item | Compound | HCMV NEC inh | GIV-Gai inh | Sa growth inh | Sa growth inh second temp
69 | O=C(O)c1csc2c1CCCCC2 | nt | 98 | 107 | 87
70 | CCOc1ccc(CC(=O)Nc2cccc(-c3nc4cccnc4s3)c2C)cc1 | -2 | 98 | 107 | 95
71 | CC(N)c1ccc2c(c1)OCCO2 (stereo not given) | 3 | 103 | 111 | 98
72 | CCOc1ccc(NC(=O)CCc2nc3cccnc3n2-c2ccccc2)cc1 | -5 | 109 | 100 | 76
73 | CC(=O)Nc1nc(CN2CCN(Cc3nc4ccccc4s3)CC2)cs1 | -11 | nt | 141 | 88
74 | O=C(Nc1cccc(N=Cc2ccccc2O)c1)c1ccccc1O | 4 | 104 | 100 | 91
75 | C=CCn1c(=O)c2ccccc2n2c(SC(C)c3nnc(-c4cccs4)o3)nnc12 (stereo not given) | -35 | nt | 72 | 84
76 | CCOCCCn1c(=N)c(S(=O)(=O)c2ccc(C)cc2)cc2c(=O)n3ccccc3nc21 | -107 | 113 | 98 | 104
77 | COc1ccc2c(C)c(CC(=O)NCc3ccccc3)c(=O)oc2c1 | -11 | 102 | 103 | 74
78 | COc1ccccc1Nc1nc(-c2ccccc2)cs1 | -7 | nt | 76 | 70
79 | CCCNCc1cc(=O)n2[nH]c(NCc3ccc(Cl)cc3)nc2n1 | -39 | 100 | nt | nt
80 | COCc1cc(=O)n(-c2ccccc2)[nH]1 | -4 | 109 | 131 | 93
81 | CCOc1cccc2sc(NC(C)=O)nc12 | -3 | nt | 69 | 82
82 | CC(C)(C)NC(=O)c1ccccc1-c1nc(-c2ccccc2)no1 | 0 | 109 | 107 | 80
83 | CC(C)(CN)C12CC3CC(CC(C3)C1)C2 | nt | 97 | 100 | 91
84 | COc1cnc2c(n1)c(=O)n(C)c(=O)n2C | -127 | 97 | 111 | 85

In a second layout: 4 of the compounds above
[81] CCOc1cccc2sc(NC(C)=O)nc12
  HCMV NEC inh = -3
  GIV-Gai inh = nt
  Sa growth inh = 69
  Sa growth inh second temp = 82
[82] CC(C)(C)NC(=O)c1ccccc1-c1nc(-c2ccccc2)no1
  HCMV NEC inh = 0
  GIV-Gai inh = 109
  Sa growth inh = 107
  Sa growth inh second temp = 80
[79] CCCNCc1cc(=O)n2[nH]c(NCc3ccc(Cl)cc3)nc2n1
  HCMV NEC inh = -39
  GIV-Gai inh = 100
  Sa growth inh = nt
  Sa growth inh second temp = nt
[84] COc1cnc2c(n1)c(=O)n(C)c(=O)n2C
  HCMV NEC inh = -127
  GIV-Gai inh = 97
  Sa growth inh = 111
  Sa growth inh second temp = 85

Pulled by compound from the list above:
item | Compound | HCMV NEC inh | GIV-Gai inh | Sa growth inh | Sa growth inh second temp
82 | CC(C)(C)NC(=O)c1ccccc1-c1nc(-c2ccccc2)no1 | 0 | 109 | 107 | 80
80 | COCc1cc(=O)n(-c2ccccc2)[nH]1 | -4 | 109 | 131 | 93

(continued)
item | Compound | HCMV NEC inh | GIV-Gai inh | Sa growth inh | Sa growth inh second temp
85 | CCOC(=O)CCSc1nc(C)cc(C(F)(F)F)c1C#N | -16 | 127 | 94 | 97
86 | O=C(COc1ccc(F)cc1)Nc1ccc(Cl)c(-c2nc3ccccc3[nH]2)c1 | 0 | 101 | 99 | 78
87 | CC(=O)Oc1ccc2nc(-c3ccccc3)oc(=O)c2c1 | -10 | 111 | 103 | 100
88 | CC(C)c1nn2c(=O)cc(COC(=O)c3ccc(NC(=O)COc4ccccc4)cc3)nc2s1 | nt | 102 | 86 | 89
89 | CC(=O)c1ccc(N2CCN(C(=O)CCc3nnc4n(C)c(=O)c5sccc5n34)CC2)cc1 | -13 | 102 | 84 | 84
90 | CCOc1ccccc1CN1CCc2nc(N3CCN(c4ccccc4F)CC3)ncc2C1 | nt | 107 | 90 | 72
91 | COc1ccc(-c2cc(C(=O)Nc3ccn(Cc4ccc(C)cc4)n3)no2)cc1OC | -24 | 105 | 95 | 91
92 | OC(CNc1ncnc2sccc12)c1ccccc1 (stereo not given) | -35 | nt | 91 | 89
